Screens from PubChem.
StopGo RLuc = FMDV 2A StopGo reporter, Renilla signal. Potency, µM (doses to about 57.5 µM), for the others: at the top dose signal change, negative = less light. 0.32% of 120,000 active. HEK cells with a luciferase reporter of 2A StopGo recoding; active means well fitted falling curve with a large enough effect; inconclusive means small, poorly fitted or top-dose-only effect; inactive means no such curve, though single readings can be large or run the other way; further: nearly all actives have a fitted effect of over 55% in size; overnight with compound
StopGo FLuc = lowers the firefly signal of an FMDV 2A StopGo reporter | HEK cells with a luciferase reporter of 2A StopGo recoding | 0.23% of 120,000 active | Potency, µM (series often up to 57.5 µM), without a hit: at the highest dose signal change, negative = less light; active = well fitted falling curve with a large enough effect; inconclusive = small, poorly fitted or top-dose-only effect; inactive = no such curve, though single readings can be large or run the other way; further: nearly all actives have a fitted effect of over 60% in size; overnight with compound
Numbers without * were called inactive; [ ] = dose if it differs, or a comment. On the % scale 0 is the no-effect control and ±100 the full control effect; potency means the concentration at half of the fitted maximal effect. A portion of the library; rates above refer to the full screens.

For CCOC(=O)c1cc2c(=O)n3ccccc3nc2n(CCCOC)c1=NC(=O)c1cc2ccccc2o1 the results were StopGo RLuc -20% and StopGo FLuc -17%.
Screening Fc1cccc(COc2ccc(-c3nnco3)cc2)c1 returned StopGo RLuc 18% and StopGo FLuc 256%[activator].
Screening Cc1nc2ncnn2c(C)c1CCC(=O)NCc1ccccc1Cl returned StopGo RLuc -16% and StopGo FLuc -26%.
For CCOC(=O)c1c(NC(=O)COc2ccccc2)sc(C(C)=O)c1C the results were StopGo RLuc 0% and StopGo FLuc 7%.
Screening C=C(C)CN1CCN(c2nc3c(c(=O)[nH]c(=O)n3C)n2Cc2ccccc2)CC1 returned StopGo RLuc -8% and StopGo FLuc -6%.
c1ccc2c(c1)ncn2-n1cccc1 was read as StopGo RLuc -12%[1.06 µM] and StopGo FLuc 7%.
CC(C)(C)OC(=O)NC(C)(C)C(=O)NCC(O)c1ccccc1 (centres undefined) was read as StopGo RLuc 15% and StopGo FLuc 17%.
Screening Cc1ccc(Cl)cc1NC(=O)N1CCC(CN2CCc3ccccc3C2)CC1 returned StopGo RLuc -13% and StopGo FLuc -22%.
O=c1oc2ccccc2c(NC2CCCCC2)c1NS(=O)(=O)c1cccs1 was read as StopGo RLuc 1% and StopGo FLuc 5%.
Screening O=C(CNc1nc(Nc2ccccc2)nc(Nc2ccccc2)n1)Nc1ccccc1 returned StopGo RLuc -4% and StopGo FLuc 0%.
For Cc1ccc(OCC(=O)NC(CC(C)C)C(=O)N(C)C)cc1 (centres undefined) the results were StopGo RLuc 6% and StopGo FLuc 18%.
Screening CN(C)C(=O)c1ccc(NC(=O)CSc2ccc3ccccc3n2)cc1 returned StopGo RLuc 23% and StopGo FLuc 65%[activator].
Screening COc1ccc(CCNC(=O)c2ccc3c(c2)N(Cc2ccc(F)cc2)C(=O)c2ccccc2S3(=O)=O)cc1OC returned StopGo RLuc 31%[activator] and StopGo FLuc 22%.
CCc1ccc(OCC(=O)Nc2ccc3oc(C)nc3c2)cc1 was read as StopGo RLuc 20% and StopGo FLuc 0%.
`Cc1ccsc1C(=O)NC1CCSC1=O` (centres undefined) gave StopGo RLuc -5% and StopGo FLuc 11%.

Structures listed so far that contain two or more sulfur atoms, in the order listed:
O=c1oc2ccccc2c(NC2CCCCC2)c1NS(=O)(=O)c1cccs1 was read as StopGo RLuc 1% and StopGo FLuc 5%.
`Cc1ccsc1C(=O)NC1CCSC1=O` (centres undefined) gave StopGo RLuc -5% and StopGo FLuc 11%.

(list continues)
For CC1CCN(C(=O)c2nn(C)c(=O)c3ccccc23)c2ccccc2S1 (centres undefined) the results were StopGo RLuc 33%[activator] and StopGo FLuc 0%.
COc1ccc(-c2nc(Cn3c(SCc4ccc(C)cc4)nc4cccnc43)c(C)o2)cc1OC was read as StopGo RLuc inconclusive and StopGo FLuc -59%.
Screening O=C(CN1CCN(CC(=O)Nc2ccccc2C(=O)c2ccccc2)CC1)Nc1ccc(F)cc1 returned StopGo RLuc 10% and StopGo FLuc -12%.
For Fc1cccc(-c2nc(COc3ccc(Oc4ccccn4)cc3)co2)c1 the results were StopGo RLuc -26% and StopGo FLuc -21%.
Screening CCCCN(C(=O)c1ccc(-c2ccc(Cl)cc2)o1)c1c(N)n(CCCC)c(=O)[nH]c1=O returned StopGo RLuc 10% and StopGo FLuc 0%.
`Cc1ccc(NC(=O)CN2C(=O)COc3ccc(S(=O)(=O)Nc4ccccc4)cc32)c(C)c1` gave StopGo RLuc 203%[activator] and StopGo FLuc -14%.
`CCc1ccc(-n2c(=O)c3c4c(sc3n(CC(=O)NCCCOC)c2=O)CCCC4)cc1` gave StopGo RLuc -18% and StopGo FLuc 0%.
COc1ccc(CNC(=O)c2ccc3nc(Cc4ccccc4F)oc3c2)cc1OC was read as StopGo RLuc inconclusive and StopGo FLuc inconclusive.
Cc1ccccc1N1CCN(C(=O)c2cc3ccccc3[nH]2)CC1 was read as StopGo RLuc 0% and StopGo FLuc 45%[activator].
For CC(=O)Nc1ccc(NC(=O)c2ccc3c(c2)N(Cc2cccc(Cl)c2)C(=O)c2ccccc2S3=O)cc1 (centres undefined) the results were StopGo RLuc 1% and StopGo FLuc -27%.
For Cc1nc(-c2cc3ccc(OCC(=O)NCCO)cc3oc2=O)cs1 the results were StopGo RLuc 9% and StopGo FLuc 202%[activator].
Screening Cc1oc(-c2cccs2)nc1CC(=O)Nc1ccccc1N1CCCC1 returned StopGo RLuc 7% and StopGo FLuc -13%.
COc1ccc(OC)c(S(=O)(=O)N2CCN(C(=O)NC3CCCC3)CC2)c1 was read as StopGo RLuc -2% and StopGo FLuc -4%.
COC(=O)C1CCN(Cc2nc3c(Br)cc(Br)cc3c(=O)[nH]2)CC1 was read as StopGo RLuc -6% and StopGo FLuc -5%.
`Cc1ccc(CN(CCc2ccccc2)C(=O)CCl)s1` gave StopGo RLuc -22% and StopGo FLuc 4%.
COc1ccc(N2C(=O)C(C)(C)CS2(=O)=O)cc1S(=O)(=O)Nc1ccc(F)c(Cl)c1 was read as StopGo RLuc -93% and StopGo FLuc -1%.
Screening O=C(COc1ccc(-c2ccccc2)cc1)c1ccc(F)cc1 returned StopGo RLuc 52%[activator] and StopGo FLuc 238%[activator].
Cc1cccc(N(C)S(=O)(=O)c2nnc(NC(=O)C(C)(C)C)s2)c1 was read as StopGo RLuc 21% and StopGo FLuc -4%.
Cc1c(Cl)cccc1-n1ncc(C(=O)NCc2cccs2)c1C1CCN(C(=O)OC(C)(C)C)CC1 was read as StopGo RLuc 24% and StopGo FLuc -16%.
For Cc1ccc(-c2noc3ncnc(NCCC(C)C)c23)cc1 the results were StopGo RLuc -12% and StopGo FLuc -19%.
Screening Cc1cc(OC(=O)c2cccs2)cc(OC(=O)c2cccs2)c1 returned StopGo RLuc 1% and StopGo FLuc 3%.
For O=C(Cc1ccsc1)NCC12CC3CC(CC(C3)C1)C2 the results were StopGo RLuc 23% and StopGo FLuc 18%.
`CC(C)(C)c1ccc(Oc2ccc(NC(=O)CCC(=O)O)cc2)cc1` gave StopGo RLuc 9% and StopGo FLuc inconclusive.
`O=C(O)C1(c2ccc(Cl)cc2)CCOCC1` gave StopGo RLuc 16% and StopGo FLuc 0%.
COc1ccc2oc(=O)c(-c3csc(/C(C#N)=C/c4ccc(F)cc4)n3)cc2c1 was read as StopGo RLuc -5% and StopGo FLuc 6%.
O=C1/C(=C/c2ccc3ccccc3c2)COc2ccccc21 was read as StopGo RLuc 3% and StopGo FLuc 193%[activator].
For COc1ccc(-c2nc3ccccc3o2)cc1NC(=O)CC(C)C the results were StopGo RLuc 1% and StopGo FLuc 14%.
Screening O=C(CSc1nccn1C1CCCC1)Nc1cc(C(F)(F)F)ccc1Cl returned StopGo RLuc 21% and StopGo FLuc 24%.
`NC(=S)N/N=C/C(Cl)=C/c1ccc([N+](=O)[O-])cc1` gave StopGo RLuc 8% and StopGo FLuc 53%[activator].
Screening CCn1nc(C(=O)Nc2cc(C(=O)OC)ccc2C)c2ccccc2c1=O returned StopGo RLuc -6% and StopGo FLuc 3%.
CCCCn1c(=O)n(CC(=O)Nc2ccccc2)c(=O)c2c1ncn2Cc1ccco1 was read as StopGo RLuc -2% and StopGo FLuc 2%.
For CCCc1c(C(=O)OCC)[nH]c2c1C(=O)CC(c1ccc(OCC)cc1)C2 (centres undefined) the results were StopGo RLuc 8% and StopGo FLuc 8%.
For COC(=O)c1cc(NC(=O)c2ccccc2OC(F)F)ccc1F the results were StopGo RLuc 18% and StopGo FLuc 28%.
COc1cccc(N2CCN(c3nc(-c4cccnc4)nc4ccccc34)CC2)c1 was read as StopGo RLuc 4% and StopGo FLuc 15%.
Screening O=Cc1ccc(OCc2ccc(Cl)cc2Cl)cc1 returned StopGo RLuc -8% and StopGo FLuc 127%[activator].
`CCn1c(=O)c(=O)[nH]c2cc(C(=O)N3CCC(C(=O)N4CCCCCC4)CC3)ccc21` gave StopGo RLuc -4% and StopGo FLuc 6%.
CCCCNC(=O)c1cccc(C(=O)OC)c1 was read as StopGo RLuc 10% and StopGo FLuc 0%.
`CCN1CCN(CCCNC(=O)Cn2nc(C)n3c(cc4c(OC)cccc43)c2=O)CC1` gave StopGo RLuc -15% and StopGo FLuc -17%.
For CCCn1c(=O)c2sc(N3CCCC3)nc2n(CC(=O)Nc2ccc3c(c2)OCO3)c1=O the results were StopGo RLuc -1% and StopGo FLuc 2%.
`N#Cc1nc(-c2ccc(S(=O)(=O)N3CCCCC3)cc2)oc1NCCCN1CCOCC1` gave StopGo RLuc 72%[activator] and StopGo FLuc 16%.
O=C(Nc1ccc(-c2nc3ccccc3o2)cc1)C1CC1 was read as StopGo RLuc 12% and StopGo FLuc 109%[activator].
`COc1ccc(NC(=O)Nc2cc(C(=O)NCc3ccc(C)cc3)ccc2N2CCCC2)cc1` gave StopGo RLuc 7% and StopGo FLuc -2%.
For O=C(CCc1ncc(-c2ccccc2)o1)NCc1ccco1 the results were StopGo RLuc -6% and StopGo FLuc 13%.
For Nc1nonc1C(=O)N1CCCN(C(=O)Nc2ccc(Cl)cc2)CC1 the results were StopGo RLuc 39%[activator] and StopGo FLuc 12%.
For CCc1ccccc1NC(=O)CCc1c(C)nc2cc(-c3ccccc3)nn2c1C the results were StopGo RLuc -1% and StopGo FLuc -17%.

Structures shown so far containing an aryl thioether with sulfur outside any ring:
Screening CN(C)C(=O)c1ccc(NC(=O)CSc2ccc3ccccc3n2)cc1 returned StopGo RLuc 23% and StopGo FLuc 65%[activator].
COc1ccc(-c2nc(Cn3c(SCc4ccc(C)cc4)nc4cccnc43)c(C)o2)cc1OC was read as StopGo RLuc inconclusive and StopGo FLuc -59%.
Screening O=C(CSc1nccn1C1CCCC1)Nc1cc(C(F)(F)F)ccc1Cl returned StopGo RLuc 21% and StopGo FLuc 24%.

Later entries:
COc1ccc(Cl)cc1NC(=O)CN1C(=O)C(C)(C)c2cc(S(=O)(=O)N3CCCCC3)ccc21 was read as StopGo RLuc -1% and StopGo FLuc -2%.
For N#Cc1nc(COc2ccc3c(c2)OCO3)oc1NC1CCCCC1 the results were StopGo RLuc 15% and StopGo FLuc 0%.
Cc1cccc(N2CCN(C(=O)CCn3c(=O)c4cccn4c4cccnc43)CC2C)c1 (centres undefined) was read as StopGo RLuc 8% and StopGo FLuc -20%.
Screening Cc1c(NC(=O)c2ccc(Cl)cc2)cc(C(C)C)c(O)c1S(=O)(=O)c1ccccc1 returned StopGo RLuc -6% and StopGo FLuc 0%.
For CC(C)(C)C(=O)[C@@H]1[C@@H](C(=O)c2ccccn2)[C@@]2(C(=O)Nc3ccccc32)[C@H]2c3ccccc3C=CN12 the results were StopGo RLuc 139%[activator] and StopGo FLuc 12%.
`C=CC(=O)NC(=O)NCc1ccccc1` gave StopGo RLuc inconclusive and StopGo FLuc -31%.
For O=C(NCc1ccc(Cl)cc1)C(=O)Nc1ccc(Br)cc1 the results were StopGo RLuc -10% and StopGo FLuc -13%.
`Cc1ccc(C(=O)Nc2cnc3ccccn3c2=O)cc1` gave StopGo RLuc 9% and StopGo FLuc 69%[activator].
Screening O=[N+]([O-])c1ccc(NCCNS(=O)(=O)c2ccccc2)c2ncccc12 returned StopGo RLuc 42%[activator] and StopGo FLuc -7%.
`Cc1ccc2c(c1)N(C(=O)CCC(=O)Nc1ccc(F)cc1F)CC(C)O2` (centres undefined) gave StopGo RLuc -3% and StopGo FLuc -16%.
For Cc1ccc(N2C(=O)c3ccccc3NC2c2cnc3ccccc3n2)cc1 (centres undefined) the results were StopGo RLuc 34%[activator] and StopGo FLuc 111%[activator].
Screening CC(NC(=O)c1ccnc(N(C)C)c1)c1ccc2c(c1)CCC(=O)N2 (centres undefined) returned StopGo RLuc -7% and StopGo FLuc 1%.
Screening Cc1c(C(=O)Nc2ccccc2)sc2nc(-c3cc4ccccc4oc3=O)[nH]c(=O)c12 returned StopGo RLuc -16% and StopGo FLuc -12%.
`CSCCC(NC(=O)c1ccccc1Cl)C(=O)Nc1cc(C)cc(C)c1` (centres undefined) gave StopGo RLuc 6% and StopGo FLuc 4%.
O=C(CN1CCN(c2ccc(O)cc2)CC1)Nc1cccc(S(=O)(=O)N2CCCC2)c1 was read as StopGo RLuc 2% and StopGo FLuc 9%.
`O=C(Cn1ncc2c3ccccc3n(Cc3ccc(F)cc3)c2c1=O)NCc1ccccn1` gave StopGo RLuc -17% and StopGo FLuc 3%.
COc1ccccc1CNC(=O)CSc1cc(=O)n(C)c2ccccc12 was read as StopGo RLuc -7% and StopGo FLuc -18%.
For COc1ccc(-c2nc(SCC(=O)N3CCCc4ccccc43)n3[nH]c(=O)cc3n2)cc1 the results were StopGo RLuc 17% and StopGo FLuc 4%.
CC1=CC(C)C(CN(CCC[N+](C)(C)C)C(=O)Nc2ccccc2)C(C)C1 (centres undefined) was read as StopGo RLuc 8% and StopGo FLuc 0%.
Screening CCNC(=O)c1ccc(CSc2nc3cccnc3n2Cc2ccc(OC)cc2)cc1 returned StopGo RLuc 20% and StopGo FLuc 46%[activator].
CC(C)OC(=O)COc1ccc2c(=O)c(-c3ccc(Cl)cc3)coc2c1 was read as StopGo RLuc -3% and StopGo FLuc 4%.
Cn1c(=O)c2c(nc(NCCO)n2Cc2ccc(F)cc2)n(C)c1=O was read as StopGo RLuc 7.9µM* and StopGo FLuc 10µM*.
For CCCC1(CC)NC(=O)N(c2ccc(Br)cc2)N1 (centres undefined) the results were StopGo RLuc 26% and StopGo FLuc 0%.
For CCN(C(=O)Cn1c(CN2CCOCC2)nc2ccccc21)c1ccccc1 the results were StopGo RLuc -15% and StopGo FLuc -13%.

Ordered by number of heavy atoms (lowest first): three of the compounds above.
For CCCC1(CC)NC(=O)N(c2ccc(Br)cc2)N1 (centres undefined) the results were StopGo RLuc 26% and StopGo FLuc 0%.
Cn1c(=O)c2c(nc(NCCO)n2Cc2ccc(F)cc2)n(C)c1=O was read as StopGo RLuc 7.9µM* and StopGo FLuc 10µM*.
Screening CCNC(=O)c1ccc(CSc2nc3cccnc3n2Cc2ccc(OC)cc2)cc1 returned StopGo RLuc 20% and StopGo FLuc 46%[activator].
